AID923: qHTS Assay for Allosteric/Competitive Inhibitors of Caspase-1: Spectroscopic Profiling in AFC Spectral Region. Potency, µM (series often up to 57.5 µM), inactives show top-dose fluorescence increase, hits mostly activators. AID 923, 2007. compound fluorescence, AFC spectral region (405/520 nm); almost no hit is shown here. 75,000 compounds, 1.1% hits; active = well fitted activation curve with a large enough effect; inconclusive = small, poorly fitted or top-dose-only effect;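 note: potency is the fitted concentration of half-maximal effect; 0% is about no effect; scaled to a free AFC standard on each plate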
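Titrations up to 57 uM read every 20 sec for 3 min (405/520 nm) with 50 nM caspase 1 and 5 uM Ac-WEHD-AFC, pH 7.5 HEPES buffer. Fluorescence-vs-time intercept gave baseline, scaled against on-plate AFC standard.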
Resorufin autofl: qHTS Assay for Spectroscopic Profiling in Resorufin Spectral Region; 59,000 compounds, 0.04% hits; max dye-equivalent concentration, M; Compound fluorescence, resorufin region 547/598 nm, buffer; active compounds read high; active = above 10 nM dye equivalent; inconclusive = 1 to 10 nM; inactive = 1 nM or less; a few of its hits are not listed in these tables; note: highest value over a series up to 38 µM
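Compounds in 100 mM Tris, pH 8.0, incubated 15 min at room temperature, then fluorescence read at 547 nm excitation/598 nm emission. Signal converted to dye-equivalent concentration via an on-plate six-point resorufin standard curve, per compound concentration.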
A488 fluor: qHTS Assay for Spectroscopic Profiling in A488 Spectral Region; compound autofluorescence, A488 spectral region, dye equivalency; active compounds read high; max dye equivalency, M; 59,000 compounds, 0.1% hits; AID 591, 2007; active = above 10 nM dye equivalent; inconclusive = 1 to 10 nM; inactive = 1 nM or less; about half of its hits are not listed in these tables;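 note: highest value over a series up to 38 µM; compound alone in buffer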
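Autofluorescence read at ex 480/em 540 nm after 15 min RT in 100 mM Tris pH 8.0; compound signal normalized to A488 standard series on each plate, reported as dye-equivalent concentration at each test concentration.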
A647 fluor: qHTS Assay for Spectroscopic Profiling in A647 Spectral Region; 59,000 tested, under 10 active; max dye-equivalent concentration, M; Compound fluorescence, A647 channel (570/671 nm), Tris buffer; active means above 1 µM dye equivalent; inconclusive means 0.1 to 1 µM; inactive means 0.1 µM or less;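 note: values scaled relative to a standard on each plate; highest value over a series up to 38 µM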
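Fluorescence read (570 nm ex, 671 nm em) after 15 min RT incubation of compounds in 100 mM Tris buffer, pH 8.0; values expressed as dye-equivalent concentration against a six-point A647 standard series on each plate.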
TSHR ag: qHTS Assay for Agonists of the Thyroid Stimulating Hormone Receptor. Thyrotropin receptor (Homo sapiens), P16473. HEK293-CNG-TSHR cells (CNG channel as cAMP sensor), membrane potential dye, cAMP. Potency, µM (highest dose often 57.1 µM), without a hit: at the top dose activation, hits mostly activators. 73,000 compounds, 0.48% hits. AID 926, 2007; active = well fitted activation curve of enough size with the parental cells flat; inconclusive = any curve in the parental cells; inactive = parental cells flat and receptor cells flat or falling; note: potency is the fitted concentration of half-maximal effect; % of control where 0% means no effect; weak receptor curves with flat parental cells got no call and are not listed
Target sequence (P16473 whole entry, looked up): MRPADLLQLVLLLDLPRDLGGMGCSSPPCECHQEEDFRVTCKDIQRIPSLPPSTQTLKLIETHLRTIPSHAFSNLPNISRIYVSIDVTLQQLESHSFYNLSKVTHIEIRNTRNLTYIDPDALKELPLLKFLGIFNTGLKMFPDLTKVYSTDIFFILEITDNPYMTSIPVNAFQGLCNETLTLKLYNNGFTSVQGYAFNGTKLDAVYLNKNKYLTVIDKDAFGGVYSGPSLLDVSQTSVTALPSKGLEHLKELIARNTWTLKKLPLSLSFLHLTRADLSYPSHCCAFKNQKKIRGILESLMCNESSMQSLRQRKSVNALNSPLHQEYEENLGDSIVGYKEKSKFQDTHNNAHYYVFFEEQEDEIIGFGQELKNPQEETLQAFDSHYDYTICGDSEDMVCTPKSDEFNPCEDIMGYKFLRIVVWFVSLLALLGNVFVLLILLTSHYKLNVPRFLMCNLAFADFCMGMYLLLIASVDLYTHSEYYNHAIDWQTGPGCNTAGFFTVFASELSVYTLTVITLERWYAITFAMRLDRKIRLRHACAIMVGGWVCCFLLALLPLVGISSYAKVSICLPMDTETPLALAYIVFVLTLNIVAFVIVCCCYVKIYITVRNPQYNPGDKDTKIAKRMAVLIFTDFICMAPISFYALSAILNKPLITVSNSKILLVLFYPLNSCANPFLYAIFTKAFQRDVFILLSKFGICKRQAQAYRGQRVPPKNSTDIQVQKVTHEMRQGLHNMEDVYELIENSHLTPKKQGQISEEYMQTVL
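cAMP rise detected as CNG-channel membrane depolarization by fluorescent dye (emission 590 nm), 30 min after compound, following 60 min dye loading containing 100 uM RO 20-1724 at room temperature. Cells: TSHR/CNG HEK 293, with parental CNG HEK 293 as control.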
The depositor's hits bear a star; i = inactive; ? = inconclusive; · = not tested or not shown; & = joins results of further samples; [ ] = remark or other dose. The list is partial; count on the stated rates, not on these rows.

SMILES | AID923 | Resorufin autofl | A488 fluor | A647 fluor | TSHR ag
CCN(C(=O)CN1CCCc2ccccc21)c1c(N)n(Cc2ccccc2)c(=O)[nH]c1=O | 1.4% | i | i | 2e-09 | 8%
C=CCn1cc(Cl)c(=O)n(CC=C)c1=O | -1.6% | i | i | 1e-09 | 8%
O=C1CCCc2c1[nH]c1c(Br)cccc21 | -3.3% | · | · | · | -5%
N#Cc1nc(-c2ccco2)oc1NCc1ccco1 | 0.1% | i | i | 9e-09 | 18%
Cc1ccc(S(=O)(=O)N2CCN(S(=O)(=O)N(C)C)CC2)cc1 | 0.5% | i | i | 5.5e-09 | 3%
COCC(=O)N1CCC2(CCN(Cc3ccc(C#N)cc3)CC2)CC1 | 4.0% | i | i | 1.8e-09 | -1%
COc1ccc(NC(=O)N2CCCC3(CCN(C(=O)c4ccc(OC)cc4)CC3)C2)cc1 | 0.5% | i | i | 2.4e-08 | 17%
O=C(NCC1CCCO1)c1ccc(/C=N/O)nc1 (centres undefined) | 0.0% | i | i | 2.7e-08 | -3%[11.4 µM]
CCOC(=O)C(CC(=O)O)N1CCCCC1 (centres undefined) | · | i | i | 3.2e-08 | ·
O=C1CCCC2=C1C(c1ccsc1)CC(=O)N2c1ccccc1 (centres undefined) | -2.7% | i | i | 7.3e-09 | 7%[11.4 µM]
CC(C)COC(=O)C1C2C=CC3(CN(C4CCCC4)C(=O)C13)O2 (centres undefined) | 1.6% | · | · | · | -4%
COc1ccccc1NC(=O)c1sc2nc(-c3ccco3)ccc2c1N | -0.6% | i | i | 1e-09 | 4%

Arranged by formula weight (ascending): 5 of the compounds above.
SMILES | AID923 | Resorufin autofl | A488 fluor | A647 fluor | TSHR ag
C=CCn1cc(Cl)c(=O)n(CC=C)c1=O | -1.6% | i | i | 1e-09 | 8%
O=C(NCC1CCCO1)c1ccc(/C=N/O)nc1 (centres undefined) | 0.0% | i | i | 2.7e-08 | -3%[11.4 µM]
N#Cc1nc(-c2ccco2)oc1NCc1ccco1 | 0.1% | i | i | 9e-09 | 18%
COCC(=O)N1CCC2(CCN(Cc3ccc(C#N)cc3)CC2)CC1 | 4.0% | i | i | 1.8e-09 | -1%
CCN(C(=O)CN1CCCc2ccccc21)c1c(N)n(Cc2ccccc2)c(=O)[nH]c1=O | 1.4% | i | i | 2e-09 | 8%

Later entries:
SMILES | AID923 | Resorufin autofl | A488 fluor | A647 fluor | TSHR ag
Cc1nc2sc3c(c2c(=O)o1)CCC3 | 1.6% | i | i | 4.1e-08 | 8%
Cc1cc(C(=O)Nc2cccc(O)c2)co1 | 1.6% | · | · | · | 0%
CCOC(=O)C1CCCN(C(=O)C2CCN(c3nnc(-n4cccc4)s3)CC2)C1 (centres undefined) | -1.3% | · | · | · | 13%
O=C(Nc1cccc(O)c1)c1cccc(S(=O)(=O)N2CCCC2)c1 | 0.3% | i | i | 1.6e-08 | -8%
CCOC(=O)c1c(-c2ccc(C)s2)csc1NC(=O)c1ccco1 | 1.6% | i | i | 1e-09 | 12%
Cc1ccnc(NC(=O)CCC(=O)N(CC(=O)NC2CCCCC2)Cc2ccc3c(c2)OCO3)c1 | 0.2% | i | i | 2.4e-09 | ?
O=C(CCCN1C(=O)CCC1=O)Nc1ccc2c(c1)OCO2 | -1.8% | i | i | 3.2e-09 | 4%
CC1Cc2ccccc2N1C(=O)Cn1nc(C(=O)O)c2ccccc2c1=O (centres undefined) | 0.6% | i | i | 5.7e-09 | ·
COc1ccc(C(=O)NCc2ccccc2OC)c(OC)c1 | 1.6% | · | · | · | 26%[11.4 µM]
CC(C)NCC(O)Cn1c2c(c3ccccc31)CCc1c-2cnn1-c1ccccc1 (centres undefined) | -0.9% | i | i | 4.4e-08 | ?
COc1ccccc1-n1cnnc1SCC(=O)c1cc(C)n(Cc2cccs2)c1C | 1.8% | i | i | 1e-09 | ?
Cc1cc(NC(=O)c2cc(-c3ccco3)on2)nn1Cc1ccc(Cl)cc1 | 0.8% | i | i | 2.6e-08 | ?
COC(=O)CSC1=C(C#N)C(c2ccccc2)CC(=O)N1 (centres undefined) | 1.4% | i | i | 8.3e-09 | 4%
CCN(Cc1cc2cc(C)ccc2[nH]c1=O)S(=O)(=O)c1ccccc1 | -0.3% | i | i | 1e-09 | 8%
O=C1NC(c2ccc3c(c2)OCO3)Nc2ccccc21 (centres undefined) | 2.0% | i | i | 1.6e-08 | 5%
N#Cc1c(/N=C/c2cccs2)sc2c1CCC2 | 8.0% | i | i | 2.5e-08 | 9%
C=CCNS(=O)(=O)c1ccc(OCC(=O)OCC)cc1 | -0.8% | i | i | 8.8e-09 | -4%
CCOC(=O)c1c(C)n(CCO)c2ccc(O)cc12 | 1.9% | i | i | 2.4e-09 | -20%
CCn1c(SCC(=O)NCC2CCCO2)nc2c(c1=O)SC(C)C2 (centres undefined) | 0.7% | · | · | · | 6%
Cc1ccc(-n2nnnc2SCC(=O)c2c(N)n(CC(C)C)c(=O)n(C)c2=O)cc1 | -1.5% | i | i | 2.2e-08 | 6%
Cc1noc(C)c1C(=O)Nc1nc(C23CC4CC(CC(C4)C2)C3)cs1 | -2.1% | i | i | 1e-09 | 13%
Cc1cccc(N2C(=O)CC(N(O)c3ccccc3)C2=O)c1 (centres undefined) | 0.4% | i | i | 1e-09 | 3%
CSc1ncc(C(=O)O)n1-c1ccc(F)cc1 | -0.3% | i | i | 1.5e-08 | 3%
CCOC(=O)C1CC=C(Cl)CC1C(=O)Nc1nccs1 (centres undefined) | 0.3% | i | i | 1e-09 | 8%
O=S1(=O)[C@H]([C@H]2CC3c4ccccc4C2c2ccccc23)[C@@H](N2CCCCC2)[C@@H]1c1ccccc1 | -4.5%[11.5 µM] | i | i | 1e-09 | 7%[11.4 µM]
CN1CCC(n2[nH]c(-c3ccccc3)c(Cc3ccccc3)c2=O)CC1 | 4.1%[11.5 µM] | i | i | 3.2e-09 | 8%[11.4 µM]
O=C(Nc1nc(-c2ccccc2)cs1)c1ccc(Br)o1 | 1.0% | · | · | · | ?
COc1ccc(C2=NOC(C(=O)NC3CCCCC3)C2)cc1OC (centres undefined) | -1.0% | i | i | 3.7e-08 | -1%
Cc1cccc(N2CCN(C(=O)C3CCCN(S(=O)(=O)c4cnc[nH]4)C3)CC2C)c1 (centres undefined) | 0.0% | i | i | 2.6e-08 | 2%[11.4 µM]
Brc1ccc(-c2nc3ccccc3s2)s1 | -0.4% | i | i | 1e-09 | 0%
COC(=O)c1ccc(CSc2ncnc3sc(C)c(C)c23)o1 | 0.3% | i | i | 1e-09 | ?
CN(C)S(=O)(=O)c1ccc2c(c1)nc(CCC(=O)NCC1CCCCC1)n2C | -0.3% | i | i | 6.2e-09 | ?
COC(=O)[C@@]1(Cc2ccc(OC)cc2)[C@H]2c3cc(C(=O)N4CCCC4)n(Cc4cc(F)cc5c4OCOC5)c3C[C@H]2CN1C(=O)c1ccccc1 | 0.5% | · | · | · | ?
O=S1(=O)c2cccc3cccc(c23)N1Cc1ccc(-c2nnco2)cc1 | 0.9% | i | i | 4.3e-09 | ?
Cn1c(N2CCC(C(N)=O)CC2)nc2c1c(=O)n(Cc1ccc(Br)cc1)c(=O)n2C | -0.4% | i | i | 1e-09 | -9%
O=C1CC(C2CCCO2)C(=O)N1c1cccc(Cl)c1 (centres undefined) | -1.2% | · | · | · | 4%
c1ccc(Cn2nnc3cnccc32)cc1 | 3.4% | i | i | 1.2e-09 | 3%
CCN(C(=O)COC(=O)C(Cc1ccccc1)N1C(=O)c2ccccc2C1=O)C1CCS(=O)(=O)C1 (centres undefined) | -0.6% | i | i | 1.8e-08 | 2%
CCOC(=O)C1CCN(Cc2cn[nH]c2-c2ccc(C)cc2)CC1 | -1.8% | i | i | 5.4e-08 | -5%
Cc1ccc(CNC(=O)CCCn2c(=O)c3ccccc3n(CC(=O)NCc3ccco3)c2=O)cc1 | -0.5% | i | i | 1e-09 | ?
COC(=O)C1[C@H]2C(=O)N(Cc3cccs3)C[C@]23C=C[C@H]1O3 (some centres undefined) | -0.9% | i | i | 1e-09 | 2%
O=c1c(-c2ccc(Cl)cc2)nc2cnc(Nc3ccccc3)nc2n1C1CC1 | 5.6% | i | i | 8.3e-09 | -8%
CCN1CCN(C(=O)CN(Cc2ccccc2)S(C)(=O)=O)CC1 | 0.7% | i | i | 1e-09 | 2%
Oc1c(C(c2cccs2)N2CCOCC2)sc2ncnn12 (centres undefined) | -1.0% | · | · | · | 4%
COc1cccc(NC(=O)CSc2nnc(-c3cccs3)n2C)c1 | 3.0% | i | i | 1e-09 | 5%
CCN1CCN(Cc2c(O)ccc3c(=O)c(-c4ccc(OC)c(OC)c4)c(C(F)(F)F)oc23)CC1 | 5.1% | · | · | · | 6%[11.4 µM]
c1ccc2nc(C3=NCCN3)ccc2c1 | -2.9%&-2.8% | i | i | 1.1e-08 | -4%&-13%
CCCc1cc(=O)oc2c(C)c(O)c(CN3CCCCC3)cc12 | · | i | i | 1e-09 | ·
COc1ccc(O[C@H]2C=C[C@@H](c3ccccc3)O[C@H]2COC(=O)CC/C(C)=N/OCC[C@@H]2C=C[C@H](OC(C)=O)[C@H](COC(C)=O)O2)cc1 | 0.9%[11.5 µM] | · | · | · | 6%[11.4 µM]
O=C(Cc1coc(-c2ccc(F)cc2)n1)NC1CCCCC1 | -0.5% | · | · | · | 13%
CCC(=O)Oc1ccc(C(CC)C(CC)c2ccc(OC(=O)CC)cc2)cc1 (centres undefined) | · | i | i | 2.2e-08 | ·
COC(=O)c1cc(NC(=O)C2COc3ccccc3O2)cc(C(=O)OC)c1 (centres undefined) | -1.3% | i | i | 2.9e-08 | ?
O=S1(=O)CC(NCc2ccccc2)C(Nc2ccccc2)C1 (centres undefined) | -1.0% | i | i | 2.8e-08 | 0%
CCN1C(=O)CSC1=NC1C2CC3CC(C2)CC1C3 (centres undefined) | 1.0% | · | · | · | 18%
COC(=O)CCN(C(C)=O)c1ccc(N)cc1 | -0.7% | i | i | 2.8e-08 | ?
Cc1cccc(NC(=O)CSc2nnc(-c3ccccc3)n2N)c1 | -1.3% | i | i | 8.5e-09 | 7%
COc1ccc(S(=O)(=O)Cc2ccc(C(=O)NCc3cccnc3)o2)cc1 | 0.1% | · | · | · | 0%
O=C(c1cc2nc(-c3ccccc3)cc(C(F)(F)F)n2n1)N1CCCC1 | 2.4% | i | i | 3e-08 | 22%
O=C(O)/C(=C\c1ccccc1)c1ccccc1 | 7.2%[11.5 µM] | i | i | 1e-09 | 12%[11.4 µM]
CC(=O)N1CCC[C@@]2(CCN(C(=O)Nc3cccc(C#N)c3)C2)C1 | 0.6% | i | i | 2.4e-08 | 12%

Additional entries
SMILES | AID923 | Resorufin autofl | A488 fluor | A647 fluor | TSHR ag
Cc1ccccc1C(=O)Nc1ccc(S(=O)(=O)N2CCN(C)CC2)cc1 | -0.2% | i | i | 1e-09 | -3%
Cc1cc(NC(=O)CSc2nc(C(C)C)nc3c2c(=O)n(C)c(=O)n3C)no1 | -1.0% | · | · | · | ?
Nc1nc2n(n1)C(c1ccc(Cl)cc1)CC(c1ccc(F)cc1)N2 (centres undefined) | -1.4% | · | · | · | 1%
Oc1ccc(-c2nnc(-c3ccc(O)cc3)nn2)cc1 | -1.3% | i | i | 2.5e-08 | -22%
CCc1c(C(=O)Nc2ncn(Cc3cccc(C)c3)n2)csc1C | 1.2% | i | i | 1e-08 | 5%
COC(=O)[C@@H]1C[C@H]1[C@@H](NC(=O)c1ccccc1)c1ccccc1 | -1.2% | · | · | · | ?
CC(C)CC(=O)Nc1ccccc1N1CCOCC1 | -1.0% | i | i | 8.4e-09 | 1%

Source: PubChem
